# Source: PubChem BioAssay
# VDR inh = Inhibitors of the vitamin D receptor (VDR): qHTS | VDR-SRC2-3 peptide fluorescence polarization, 2 h | actives 0.93% (n = 400,000) | AID 504847, 2011 | Potency, µM, without a hit: max response, negative = inhibition, hits mostly inhibitors; active = well fitted inhibition curve with a large enough effect; inconclusive = small, poorly fitted or top-dose-only effect, or another doubt; inactive = no such curve, though single readings can be large or run the other way; also: series mostly up to about 120 µM
# Target sequence (P11473 whole entry, looked up): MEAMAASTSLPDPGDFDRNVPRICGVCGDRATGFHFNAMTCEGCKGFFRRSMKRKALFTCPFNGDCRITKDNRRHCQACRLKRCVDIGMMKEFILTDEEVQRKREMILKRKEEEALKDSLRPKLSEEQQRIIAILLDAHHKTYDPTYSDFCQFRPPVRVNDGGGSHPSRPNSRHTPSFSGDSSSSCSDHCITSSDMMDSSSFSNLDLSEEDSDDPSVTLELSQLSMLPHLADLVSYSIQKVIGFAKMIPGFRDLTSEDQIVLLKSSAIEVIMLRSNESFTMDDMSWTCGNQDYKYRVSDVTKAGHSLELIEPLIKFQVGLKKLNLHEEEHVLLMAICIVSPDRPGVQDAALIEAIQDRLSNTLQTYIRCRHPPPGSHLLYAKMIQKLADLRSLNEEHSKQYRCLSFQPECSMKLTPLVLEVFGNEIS
#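 Measured by FP: displacement of SRC2-3 coactivator peptide from VDR by library compounds, following a two-hour ambient incubation.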
# * hit, by the source's call; u = inconclusive; & = joins results of further samples. % is scaled to controls: 0 for no effect and ±100 for the full control effect; potency is read from the fitted curve at half-maximal effect. The list is partial; count on the stated rates, not on these rows.
VDR inh	SMILES
-3%	CCOc1ccc(N(CC(=O)N/N=C/c2cc([N+](=O)[O-])ccc2Cl)S(C)(=O)=O)cc1
-21%	O=[N+]([O-])/C(=C\Nc1ccccc1)S(=O)(=O)c1ccccc1
8%	Cc1ccn2c(C(=O)NNC(=O)Nc3ccc(Cl)cc3)c(C)nc2c1
-23%	CCn1cc(C(=O)OCC(=O)Nc2cc(Cl)ccc2C)c(=O)c2ccc(C)nc21
-12%	COc1ccc(C(=O)Nc2ccccc2N2CCCC2)cc1
4%	Oc1ccccc1CN(Cc1ccco1)CC(O)COCc1ccc(Cl)cc1 (stereo not given)
15%	CCOC(=O)C1C(=O)OC(C)(C)C1C(C)C(=O)c1ccc(OC)cc1 (stereo not given)
-1%	c1ccc2c(c1)oc1c(N3CCN(Cc4ccc5c(c4)OCO5)CC3)ncnc12
-2%	CSc1ccccc1C(=O)Nc1ccc(C)c(C)c1
-12%	O=C(CN1CCCc2ccccc21)Nc1cc(S(=O)(=O)N2CCCC2)ccc1Cl
0%	COc1ccc(C2=CC(c3cccc(C)c3)n3nnnc3N2)cc1 (stereo not given)
18%	CCOC(=O)C1(CC2CC2)CCN(C(=O)c2cccnc2C)CC1
-17%	O=C(CSc1nc2nc3c(cc2c(=O)n1-c1ccccc1)CCCC3)Nc1cccc2ccccc12
3%	COC(=O)CNC(=O)CNC(=O)Nc1ccccc1
u	CSCc1ccc(C(=O)N2CCC(CCC(=O)N(C)Cc3ccccc3)CC2)o1

# 6 neighbouring compounds out of the list so far, quoted:
VDR inh	SMILES
-12%	O=C(CN1CCCc2ccccc21)Nc1cc(S(=O)(=O)N2CCCC2)ccc1Cl
0%	COc1ccc(C2=CC(c3cccc(C)c3)n3nnnc3N2)cc1 (stereo not given)
18%	CCOC(=O)C1(CC2CC2)CCN(C(=O)c2cccnc2C)CC1
-17%	O=C(CSc1nc2nc3c(cc2c(=O)n1-c1ccccc1)CCCC3)Nc1cccc2ccccc12
3%	COC(=O)CNC(=O)CNC(=O)Nc1ccccc1
u	CSCc1ccc(C(=O)N2CCC(CCC(=O)N(C)Cc3ccccc3)CC2)o1

# (listing goes on)
VDR inh	SMILES
7%	COC(=O)c1ccccc1NC(=O)CN(C1CCCCC1)S(C)(=O)=O
6%	CC[C@]12c3[nH]c4ccccc4c3CCN1C(=O)C(CC(=O)NCC13CC4CC(CC(C4)C1)C3)C[C@@H]2C(=O)N1CCN(C(=O)C2CC2)CC1 (stereo not given in full)
0%	CC(C)C[C@H]1COCCS(=O)(=O)N1Cc1ccccc1F
4%	CCc1ccc(N2C(=O)N(CC(=O)C(C)(C)C)c3ccccc3S2(=O)=O)cc1
2%	COc1ccc(N=C2SC(C(=O)Nc3ccc(F)cc3)CC(=O)N2C)cc1 (stereo not given)
8%	CCOCCCn1c(SCC(=O)NC(C)C)nc2ccccc2c1=O
-17%	COc1ccc(N2CCN(C(=O)CCCC(=O)c3ccccc3)CC2)cc1
-4%	O=c1[nH]cnc2c1ncn2[C@@H]1O[C@H](COS(=O)(=O)O)[C@@H](O)[C@H]1O
-22%	O=C(NC(=S)NC1CCCCC1)c1ccc(F)cc1
-13%	CC(C)N1CCC(N2CCN(Cc3ccc(-c4ccccc4Cl)o3)CC2CCO)CC1 (stereo not given)
u	O=C(CNC(=O)[C@@H]1Cc2ccccc2CN1)NC1CCCCC1
11%	COc1ccc(S(=O)(=O)N2CCCCCC2)cc1C(=O)N(C)Cc1ccc(C)cc1
12%	O=C(/C=C/c1ccccc1)Nc1nc(-c2cccs2)ns1
-4%	CCN(C[C@H]1N[C@@](Cc2ccccc2)(C(=O)OC)[C@H]2C(=O)N(Cc3ccccc3)C(=O)[C@@H]12)C(=O)COC
-2%	Cc1ccc(NC(=O)CCn2c(=O)c3cccn3c3ccccc32)c(C)c1

# 2 entries picked at random from the list so far, as already listed:
VDR inh	SMILES
7%	COC(=O)c1ccccc1NC(=O)CN(C1CCCCC1)S(C)(=O)=O
12%	O=C(/C=C/c1ccccc1)Nc1nc(-c2cccs2)ns1

# (next part)
VDR inh	SMILES
-13%	CC(=O)Nc1ccc(NS(=O)(=O)Cc2ccccc2)cc1
-11%	CC1CC2(C)Oc3ccccc3C3OCC1(CO)C(C)C32 (stereo not given)
14%	COc1ccc(NC(=O)CC2C(=O)N(c3ccc(C)cc3)C(=O)N2Cc2cccnc2)cc1 (stereo not given)
5%	COc1ccc(C)cc1NC(=O)COCC(=O)O
-3%	O=C(CCS(=O)(=O)c1ccccc1)Nc1ccc(-c2nc3ccccc3s2)c(O)c1
2%	O=C(Nc1ccc(S(=O)(=O)Nc2ncccn2)cc1)C(F)(F)F
-2%	Cc1ccc2c(CNCc3cccs3)c(C(=O)O)n(Cc3ccc(F)cc3)c2c1
-8%	CCCCC(CC)CNC(=O)CCCc1nnc2n(CCC)c(=O)c3sccc3n12 (stereo not given)
-20%	Cc1ccnc(NC(=O)CCN2C(=O)c3ccccc3S2(=O)=O)n1
21%	Cc1ccccc1-n1c(=O)c2ccccc2n2c(=O)[nH]nc12
2%	O=C1CSC(=Nc2cccc(Cl)c2Cl)N1
-4%	Cc1cc(Cl)ccc1OCC(=O)Nc1nc(-c2cccs2)cs1
12%	CN(C)c1ccc(CNC(=O)C2CCN(S(=O)(=O)c3cn(C)cn3)CC2)cc1
15%	CN(Cc1ccccc1)C(=O)CN(C1CCCCC1)S(C)(=O)=O
-16%	O=C(N/N=C/c1cc(Br)cc([N+](=O)[O-])c1O)c1ccc(NC(=O)c2ccc(F)cc2)cc1

# Some of these compounds in order of the VDR inh value, high to low:
compound	VDR inh
O=c1[nH]cnc2c1ncn2[C@@H]1O[C@H](COS(=O)(=O)O)[C@@H](O)[C@H]1O	-4%
COc1ccc(C(=O)Nc2ccccc2N2CCCC2)cc1	-12%
O=[N+]([O-])/C(=C\Nc1ccccc1)S(=O)(=O)c1ccccc1	-21%
CCn1cc(C(=O)OCC(=O)Nc2cc(Cl)ccc2C)c(=O)c2ccc(C)nc21	-23%

# Later entries
VDR inh	SMILES
-7%	CSc1ccccc1NS(=O)(=O)c1ccccc1
0%	O=C(CCC1CCCN(C(=O)c2ccsc2)C1)N1CCN(c2ccccn2)CC1 (stereo not given)
-5%	Cc1ccc(NC(=S)N2CCOCC2)c(C)c1
4%	Cc1ccnc2nc(C(=O)Nc3nnc(-c4ccccc4)o3)nn12
6%	CCc1ccc(C2=CSC3=NCCN23)cc1
15%	COc1ccc(-c2cc(C(=O)NCCN3CCOCC3)c3ccccc3n2)cc1
-7%	CC(C)(C)C(=O)Nc1cc(S(=O)(=O)Nc2ccc(Cl)cc2)ccc1O
-7%	Cc1nn(C)c(C)c1S(=O)(=O)N1CCCC(C(=O)NCCc2ccc(Cl)cc2)C1 (stereo not given)
-4%	O=C(c1ccccc1Cl)N(Cc1ccc(Cl)c(Cl)c1)N1C(=O)CCCC1=O
-10%	COc1ccc(C)cc1NC(=O)c1nn(C)c(C(=O)Nc2cc(C)ccc2OC)c1[N+](=O)[O-]
-5%	CCC(=O)N1CCCc2cc(S(=O)(=O)N3CCC(C(=O)Nc4ccc(C#N)cc4)CC3)ccc21
-5%	CCCCN(C(=O)c1c(C)noc1C)c1c(N)n(CCC)c(=O)[nH]c1=O
13%	Cc1nc2sc(C(c3cccs3)N3CCOCC3)c(O)n2n1 (stereo not given)
9%	CC(C)(C)C1CCC(=NNC(=S)Nc2cccnc2)CC1 (stereo not given)
-7%	Cc1c(CCC(=O)N[C@@H](CC(C)C)C(=O)O)c(=O)oc2cc3oc4c(c3cc12)CCCC4
-29%&7%	CCCCN(CC)C(=O)c1cc2c(=O)n3cccc(C)c3nc2s1
u	O=c1nc2s/c(=C\c3ccco3)c(=O)n2nc1Cc1ccccc1
-10%	COc1ccc(CNC(=O)c2nnn(Cc3ccc(OC)cc3)c2N)cc1
6%	COc1ccc2oc(=O)c(C(=O)N3CCN(c4cc(Cl)ccc4Cl)CC3)cc2c1
-2%	COc1ccc(Nc2nc(=O)[nH]nc2C)cc1
13%	COc1ccc(-n2ccn(Cc3ccccc3Cl)c(=O)c2=O)cc1OC
10%	C=C(C)CCC1(C)NC(=O)N(c2ccccc2)N1 (stereo not given)
u	CC[C@H](C)[C@H](NC(=O)[C@H](CCCNC(=N)N)NC(=O)[C@@H](NC(=O)[C@H](CCCNC(=N)N)NC(=O)[C@H](CCCCN)NC(=O)[C@H](CCCNC(=N)N)NC(=O)[C@@H](NC(=O)[C@H](CC(N)=O)NC(=O)[C@@H](N)CS)[C@@H](C)O)[C@@H](C)CC)C(=O)N[C@@H](CCC(N)=O)C(=O)N[C@@H](CCCNC(=N)N)C(=O)NCC(=O)N1CCC[C@H]1C(=O)NCC(=O)N[C@@H](CCCNC(=N)N)C(=O)N[C@@H](C)C(=O)N[C@@H](Cc1ccccc1)C(=O)N[C@H](C(=O)N[C@H](C(=O)N[C@H](C(=O)NCC(=O)N[C@@H](CCCCN)C(=O)O)[C@@H](C)CC)[C@@H](C)O)C(C)C
-21%	CC(=O)/C(=N\Nc1ccccc1)Sc1nncn1C
0%	O=C(NCCC(c1ccccc1)c1ccccc1)c1ccc(Br)o1
4%	CCOC(=O)Nc1ccc(C(=O)NCC2CCCO2)cc1 (stereo not given)
-20%	C[C@]12CCC(=O)C=C1[C@H](O)C[C@@H]1[C@@H]2[C@@H](O)C[C@@]2(C)[C@H]1CC[C@]2(O)C(=O)CO
-11%	O=C(NCCOc1ccccc1)C1CCC(=O)N(CCc2ccccn2)C1 (stereo not given)
-6%	Nc1nonc1-c1nc2ccccc2n1Cc1ccc(Br)cc1
u	CCOc1cc(/C=C2\SC(=O)N(CC(=O)Nc3ccccc3F)C2=O)cc([N+](=O)[O-])c1O
-21%	CCOC(=O)c1c(NC(=O)COc2ccc(C(C)(C)C)cc2)sc2c1CCCC2
0%	COc1ccc(Nc2oc(-c3ccccc3)nc2C#N)cc1
-14%	Fc1ccc(CNCc2ccco2)cc1
21%	C=CCN1CCN(C(=O)c2cc3c(s2)CCCC3)CC1
27%	CCc1ccc(NC(=O)c2cnc(SC)nc2C)cc1
0%	COCCNC(=O)c1cnc2sc(N3CCCCC3)nn2c1=O
-14%	CC(C)(C)c1nc2ccccc2c2nnc(SCC(=O)Nc3nccs3)n12
3%	CCOC(=O)NC(=O)c1cn(CCNCCO)c(=O)[nH]c1=O
-18%	CC(C)NC(=O)COc1ccc(S(=O)(=O)N(C)Cc2ccccc2)cc1
0%	N#C/C(=C\c1ccc(OCCN2CCOCC2)cc1)C(=O)Nc1ccccc1F
-2%	Cc1ccc(N(CC(=O)NCCc2ccccc2)C(=O)c2csnn2)cc1
-7%	Cc1noc(C)c1S(=O)(=O)Nc1ccccc1OC(F)(F)F
-14%	COc1ccccc1C(=O)NC(=O)COC(=O)CCOc1ccccc1C
1%	CCOc1ccc(OCC)c(NC(=O)c2cc(S(=O)(=O)N3CCCC3)cn2C)c1
3%	CC(=O)N/C(=C\c1ccccc1)C(=O)OC(C)C(=O)N(C)c1ccccc1 (stereo not given)
5%	O=C(CCc1ccccc1)Nc1ccc2c(c1)C(=O)OC2
-18%	Cc1ccc(S(=O)(=O)Nc2ccncc2)c(C)c1N(C)S(=O)(=O)c1ccc(F)cc1
21%	Cc1ccccc1OCC(=O)N/N=C1\CC(=O)CC(C)(C)C1
6%	N#Cc1nc(-c2ccco2)oc1NCCCN1CCOCC1
-3%	COc1cc2nc(Cl)nc(N3CCCCC3)c2cc1OC
11%	NC(=O)c1nsc(C(=O)N(Cc2ccco2)C(C(=O)NCC2CCCO2)c2ccc(O)cc2)c1N (stereo not given)
7%	O=C1OCC(c2ccccc2)=C1c1ccc(S(=O)(=O)N2CCOCC2)s1
3%	COc1ccc(C(=O)NCC(=O)OCC(=O)NCc2ccc3c(c2)OCO3)cc1
-9%	CCN(CC)S(=O)(=O)c1cccc(-c2nnc(SCCOc3ccccc3)o2)c1
4%	CCO[C@H]1OC(C(=O)N2CCN(C)CC2)=C[C@@H](c2ccc3c(c2)OCO3)[C@@H]1CCCO
-10%	Cc1ccc(S(=O)(=O)NCC(=O)OCC(=O)Nc2ccccc2OC(F)F)cc1
9%	COc1ccc(CCN2CC(C(=O)NCc3cc(C(C)C)no3)CCC2=O)cc1 (stereo not given)
17%	O=C(NNC1=NCCN1Cc1ccccc1)c1cccc(C(F)(F)F)c1
-13%	COc1ccc(C(OCCN2CCC[C@H](C(=O)O)C2)(c2ccc(OC)cc2)c2ccc(OC)cc2)cc1
-5%	Cn1nccc1C(=O)Nc1cccc(C(F)(F)F)c1

# The list goes on (2 carried over from the part before).
VDR inh	SMILES
-13%	COc1ccc(C(OCCN2CCC[C@H](C(=O)O)C2)(c2ccc(OC)cc2)c2ccc(OC)cc2)cc1
-5%	Cn1nccc1C(=O)Nc1cccc(C(F)(F)F)c1
9%	COc1cccc(CN2C(=O)CN(C3CCCCC3)C(=O)C2c2ccc(OC)c(OC)c2)c1 (stereo not given)
-7%	CCc1cc(=O)oc2c(C)c(O)c(CN(C)C)cc12
13%	CCC(C)c1ccc(NC(=O)C/C(C)=N/NC(=O)c2cnccn2)cc1 (stereo not given)
3%	COc1ccc(NC(=O)c2oc3ccccc3c2NC(=O)c2cc(OC)c(OC)c(OC)c2)cc1
-12%	CCN(CC)S(=O)(=O)c1ccc(C(=O)N2CCc3ccccc32)cc1
-2%	O=C(N[C@@H](Cc1ccccc1)C(=O)NC1CCCCCC1)c1ccco1
7%	COc1cc(/C=N/S(=O)(=O)CCc2ccccc2)ccc1O
-2%	CCCCn1c(N)c(N(CCC(C)C)C(=O)COC(=O)c2cccnc2OCC)c(=O)[nH]c1=O
-5%	O=C(CSc1nnc(-c2ccccn2)o1)Nc1ccc(F)cc1
2%	CC1CCN(c2ccc3nnc(CCC(=O)NC(C)C)n3n2)CC1
-16%	CC1CC(C)CN(C(=O)c2nn(C)c3c2CSc2ccccc2-3)C1 (stereo not given)
